Screening results as filed in PubChem.
PINK1 modulator = PINK1 expression modulation | 0.2% of 410,000 active | PINK1 immunofluorescence, high-content cytometry, 24 h | Potency, µM (doses to about 76.6 µM), without a hit: top-dose activation (PINK1 increase), actives largely listed as activators | AID 624263; active = well fitted activation curve with a large enough effect; inconclusive = small, poorly fitted or top-dose-only effect; inactive = flat fitted curve, though single readings scatter; cell line not stated here;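 further: % of control where 0% means no effect; nearly all actives have a fitted effect of over 65% in size; a mitochondrial uncoupler was the plate control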
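Measures PINK1 amount and localization on or inside mitochondria by immunofluorescence. Stable cells get compounds at 5 concentrations for 24 hours before fixation and staining; CCCP controls included.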
* = called active by the depositor; ? = inconclusive. Potency means the concentration at half of the fitted maximal effect.

SMILES	PINK1 modulator
COC(=O)c1ccccc1NC(=O)C1=C(C)C(=O)OC12CCC(C)CC2 (stereo unspecified)	-0.5%
Cc1ccc(CSc2oc(-c3ccco3)nc2S(=O)(=O)c2ccc(Br)cc2)cc1	-0.2%
Cc1ccc(Cl)cc1N1CCN(S(=O)(=O)c2ccc3c(c2)C(C(C)C)C(=O)N3)CC1 (stereo unspecified)	?
COc1cccc(-c2nnc(SCC(=O)N(C)C3CCCCC3)o2)c1	2.1%
Cc1ccc(Nc2nnc(-c3ccc(C)c(S(=O)(=O)N4CCOCC4)c3)c3ccccc23)cc1	0.8%
CCCNC(=O)CSc1c2c(nc3ccc(Cl)cc13)CCCC2	-0.1%
COc1ccc(C2NC(=O)N(C)C3=C2C(=O)N(c2cccc(Cl)c2)C3)cc1 (stereo unspecified)	0.1%
CCOC(=O)N1CCc2c(sc3c2c(=O)n(Cc2ccccc2)c(=O)n3CC(=O)Nc2cccc(C)c2)C1	3.1%
Cc1cccc(NC(=O)CSc2nc3ccccc3c3nc(CCn4cncc4C)nn23)c1	3.3%
CCCCOC(=O)c1ccc(NC(=O)CSc2nc3c(c(=O)[nH]2)CCCC3)cc1	0.8%

Continued; it opens with the 2 that closed the last part.
SMILES	PINK1 modulator
Cc1cccc(NC(=O)CSc2nc3ccccc3c3nc(CCn4cncc4C)nn23)c1	3.3%
CCCCOC(=O)c1ccc(NC(=O)CSc2nc3c(c(=O)[nH]2)CCCC3)cc1	0.8%
COc1ccc(S(=O)(=O)c2cc(NS(=O)(=O)c3ccc(Cl)cc3)c(C)c(C)c2O)cc1	-0.3%
Cc1cccnc1-c1cccc2c1OC(CNC(=O)C(=O)c1ccccc1)C2 (stereo unspecified)	1.2%
CCN(CC)c1ccc(-c2nc(-c3ccncc3)no2)cc1[N+](=O)[O-]	5.8%
Cc1ccc2c(c1)c1c(c(=O)n(-c3ccccc3C)c(=O)n1CC(=O)NCCC1=CCCCC1)n2C	-0.2%
Cc1ccc(CN2C(=O)N(c3ccccc3)C(=O)C2CC(=O)Nc2ccccc2)cc1 (stereo unspecified)	0.3%
Cc1ccc(OCCn2c(-c3ccc(Cl)cc3)nc3ccccc3c2=O)c(C)c1	-0.4%
CCN1CCN(c2cc(C)c3cc(NC(=O)/C=C/c4ccc(OCCC(C)C)cc4)ccc3n2)CC1	0.3%
O=C(Nc1ccccc1F)c1oc2ccccc2c1NC(=O)c1c(F)cccc1F	6.1%
CCOc1ccc(CCNC(c2nnc(-c3ccccc3)o2)c2ccccc2Cl)cc1OCC (stereo unspecified)	5.9%
COc1cccc(C(=O)NCC(c2ccc3c(c2)OCO3)N2CCN(C)CC2)c1 (stereo unspecified)	-0.5%
O=C(Cc1cccs1)NC1CC(=O)N(c2ccc(F)cc2)C1 (stereo unspecified)	2.0%
COc1ccc(CC(=O)Nc2ccc(-c3nc4ccccc4s3)c(C)c2)cc1OC	0.6%
CCOC(=O)c1cccc(NC(=O)C2CCCN(c3nnc(C)c4c(C)n(-c5ccccc5)nc34)C2)c1 (stereo unspecified)	0.3%
CC(=O)N1CCc2cc(CNS(=O)(=O)c3cccs3)ccc21	-0.6%
CCN(C(=O)CSc1nnc(-c2cc(OC)c(OC)c(OC)c2)o1)c1ccccc1	4.0%
CN1C(=O)c2ccccc2Sc2ccc(NC(=O)Cc3ccc(Cl)cc3)cc21	0.5%
CCOc1ccc(-c2nc3cc(NC(=O)COc4cccc(C)c4)ccc3o2)cc1	5.4%
COc1ccccc1Nc1nc(-c2ccccc2Cl)c2cc(Br)ccc2n1	3.8%
O=C(Cn1c(=O)n(Cc2nc(-c3ccccc3)no2)c(=O)c2cc3c(cc21)OCO3)Nc1cccc(C(F)(F)F)c1	0.5%
CCS(=O)(=O)c1ncc(N(Cc2ccco2)Cc2ccccc2F)c(C(=O)Nc2cccc(Cl)c2)n1	0.1%
CC(=O)Nc1ccc(NC(=O)C2Cc3ccccc3N2C(=O)c2ccccc2)cc1 (stereo unspecified)	-0.3%
Cc1ccc2c(=O)cc(C(=O)Nc3cccc(C(F)(F)F)c3)oc2c1C	1.5%
CC1=C(C(=O)OCC2CCCCC2)C(c2ccc(Cl)cc2Cl)CC(=O)N1 (stereo unspecified)	1.2%
Cc1cccc(N(CC(=O)N(C)Cc2ccccc2)S(=O)(=O)c2ccccc2)c1C	-1.0%
O=C1[C@@H]2CSC(c3ccc(F)cc3)N2C(=O)N1c1ccc(Cl)cc1 (stereo partly specified)	7.5%
Cc1ccc2oc(-c3ccc(Cl)c(NC(=O)c4cc5ccccc5o4)c3)nc2c1	11%
O=C(NCc1ccc(F)cc1)C1CCN(c2ncnc3c2nc2n3CCCCC2)CC1	0.3%
O=C(c1ccc([N+](=O)[O-])cc1)N(Cc1ccco1)c1ccccn1	-1.2%
CC(C)c1nn2c(=O)cc(COC(=O)C3CCCCC3)nc2s1	-0.3%
CCCCn1c(=O)c2oc3ccccc3c2n(Cc2cccc(C)c2)c1=O	-1.1%

Quoted at random: 3 records from the list.
SMILES	PINK1 modulator
Cc1ccc2c(=O)cc(C(=O)Nc3cccc(C(F)(F)F)c3)oc2c1C	1.5%
O=C(c1ccc([N+](=O)[O-])cc1)N(Cc1ccco1)c1ccccn1	-1.2%
O=C1[C@@H]2CSC(c3ccc(F)cc3)N2C(=O)N1c1ccc(Cl)cc1 (stereo partly specified)	7.5%

Next results follow.
SMILES	PINK1 modulator
Cc1ccc(-n2ncc3c(N4CCN(c5ccccc5)CC4)ncnc32)cc1C	1.3%
CCOC(=O)c1ccccc1NC(=O)CSc1ncc(CO)n1Cc1ccc(C)cc1	-0.2%
CC(C)(C)NC(=O)C1CCN(c2nc3ccccc3nc2C(F)(F)F)CC1	0.4%
CCN(Cc1nc(-c2cccc(C)c2)no1)S(=O)(=O)c1ccc(C)cc1	0.6%
CCC(C)NC(=O)CSc1nc2c(sc3ccccc32)c(=O)n1CCc1ccccc1 (stereo unspecified)	-0.1%
CC(C)c1c(C(=O)NCc2ccccn2)cnn1-c1nccc(-c2ccccc2F)n1	0.9%
Cc1ccc(C(=O)Nc2ccc(OCc3cc(=O)n4c(C)csc4n3)cc2)cc1	?
COCCCNC(=O)Cn1c(=O)n(-c2ccc(Cl)cc2)c(=O)c2c3c(sc21)CCCCC3	0.0%
O=C(CN1C(=O)COc2ccc(S(=O)(=O)NC3CCCC3)cc21)Nc1ccc(Cl)cc1F	2.2%
Cc1c(F)cccc1NC(=O)C1CCCN1S(=O)(=O)c1ccc(F)cc1 (stereo unspecified)	2.9%
COC(=O)c1ccc2nc(C)cc(Nc3ccc(O)cc3)c2c1	0.6%
NCC(=O)c1c[nH]c2ccccc12	0.1%
O=C(c1ccc2c(c1)N(Cc1cccc(Cl)c1)C(=O)c1ccccc1S2(=O)=O)N1CCc2ccccc21	1.9%
O=C(NCCCN1CCCCC1)c1sc2ncccc2c1-n1cccc1	2.0%
O=C(Nc1cccc(Cl)c1)c1cc(S(=O)(=O)N2CCC3(CC2)OCCO3)ccc1F	3.2%
CCOc1ccc(CNC(=O)C2CCN(Cc3cc4ccccc4n3Cc3ccccc3C)CC2)cc1	2.0%
CC(=O)N1CCCc2cc(S(=O)(=O)N(Cc3ccccc3)C(C)C)ccc21	3.9%
CCS(=O)(=O)Nc1ccc(-c2cn3ccsc3n2)cc1	-0.7%
Cc1cccc(C(=O)N2CCc3cc(CNC(=O)c4ccc(Br)o4)ccc32)c1	-0.1%
CN(Cc1ccccc1)c1ccc(-c2nc(-c3ccccc3)no2)cc1[N+](=O)[O-]	0.5%

Some of the entries above, set out differently:
O=C(c1ccc2c(c1)N(Cc1cccc(Cl)c1)C(=O)c1ccccc1S2(=O)=O)N1CCc2ccccc21
  PINK1 modulator: 1.9%

O=C(NCCCN1CCCCC1)c1sc2ncccc2c1-n1cccc1
  PINK1 modulator: 2.0%

O=C(Nc1cccc(Cl)c1)c1cc(S(=O)(=O)N2CCC3(CC2)OCCO3)ccc1F
  PINK1 modulator: 3.2%

CCOc1ccc(CNC(=O)C2CCN(Cc3cc4ccccc4n3Cc3ccccc3C)CC2)cc1
  PINK1 modulator: 2.0%

Next part
SMILES	PINK1 modulator
Cc1[nH]c2ccccc2c1C1(O)C(=O)N(Cc2ccccc2)c2ccc(Br)cc21 (stereo unspecified)	0.4%
Cc1cccc(N2CCN(C(=O)c3noc4c3CCCCC4)CC2)c1C	0.7%
COc1cc(NC(=O)CN(c2ccc(C)cc2)S(=O)(=O)c2cccc3nonc23)cc(OC)c1	0.0%
O=S(=O)(c1ccc(-c2csc(=Nc3ccc(F)cc3)n2CCCCCCO)cc1)N1CCCC1	1.5%
CCOC(=O)c1[nH]c(C)c(CCC(=O)Nc2cc(Cl)ccc2C)c1C	0.0%
COc1cccc(NC(=O)Cn2c(=O)n(CCC(=O)NCc3ccccc3OC)c(=O)c3ccccc32)c1	-0.1%
CC(=O)c1ccc(NC(=O)CCc2c(C)nn(-c3ccc4nnc(C)n4n3)c2C)cc1	0.1%
Cc1ccc2nc(N3CCC(C(=O)N4CCN(c5cccc(Cl)c5)CC4)CC3)[nH]c2c1	-1.4%
Cc1nc2sccn2c(=O)c1S(=O)(=O)Nc1cc(Cl)ccc1O	1.7%
Cc1c(Cl)cccc1NC(=O)C1CCCN(c2nnc(-n3c(C)ccc3C)s2)C1 (stereo unspecified)	-0.2%
Cc1ccc(CCNC(=O)c2cnc3c(C)cccn3c2=O)cc1	-0.6%
Cc1cccc(-n2nc(C)c(C(=O)N3CCN(c4ccccc4)CC3)c2-n2cccc2)c1	2.6%
CCOC(=O)N1CCC(NC(=O)c2cnn(-c3ccc(F)cc3)c2-n2cccc2)CC1	-0.1%
CN(C)S(=O)(=O)Nc1ccc(-c2cn3ccsc3n2)cc1	-5.9%
O=C1c2oc3ccccc3c(=O)c2C(c2cccc(O)c2)N1Cc1ccc(F)cc1 (stereo unspecified)	2.4%
COc1ccc(NC(=O)CSc2nc(-c3ccco3)cc(C(F)(F)F)n2)cc1Cl	4.7%
Cc1cc2oc(C(=O)N(Cc3ccc(Cl)cc3)Cc3ccco3)c(C)c2cc1Cl	0.7%
O=C(Nc1ccc(SC(F)F)cc1)c1cc(-c2ccc3c(c2)OCCO3)on1	2.0%
COc1ccc(-c2noc(CSc3nnc(C)n3-c3ccc(C)cc3)n2)cc1OC	0.7%
CN(C)c1ccc(-c2ccc(CCO)cc2)cc1	1.6%
Cc1nn(-c2ccccc2)c2nc(C3CC3)cc(C(=O)NCc3ccccc3Cl)c12	1.7%
Cc1ccc(NC(=O)Cn2c(=O)n(Cc3nc(C)no3)c(=O)c3cc4c(cc32)OCO4)c(C)c1	0.0%
CCOC(=O)c1c(C)[nH]c(C)c1S(=O)(=O)N(C)CC(=O)NCc1ccc(Cl)cc1	0.0%
COc1ccc(NC(=O)C2CCCN(c3ncnc4onc(C)c34)C2)cc1OC (stereo unspecified)	-0.1%
COc1cc(/C=C/c2nc(C#N)c(N3CCCCC3)o2)cc(OC)c1OC	0.3%
CSc1cccc(NC(=O)c2ccc3c(c2)c(C)c(C)n3Cc2ccc(F)cc2)c1	0.6%
C/C=C(\C)C(=O)NCCN1Cc2ccccc2OC(c2ccccc2OC)C1 (stereo unspecified)	-0.7%
CCOC(=O)c1c(NC(=O)c2cc(=O)c3cc(C)ccc3o2)sc2c1CCCC2	5.3%
O=S(=O)(c1ccc(Cl)cc1)N1CCN(c2nc(-c3ccc(F)cc3)nc3cc(Cl)ccc23)CC1	-0.5%
COc1ccc(-c2csc3ncnc(Nc4ccc(OC)cc4OC)c23)cc1	0.1%
COc1ccc(C)cc1NC(=O)c1cnc2ccc(C)cn2c1=O	0.1%
CC(Nc1ncnc2c1cnn2-c1cccc(Cl)c1)c1ccccc1 (stereo unspecified)	?
CCc1ccc(C2CC(=O)c3c([nH]c(C(=O)OC4CCC(C)CC4)c3C)C2)cc1 (stereo unspecified)	3.7%
O=C(/C=C\c1ccc2c(c1)OCO2)NC1CC(=O)N(c2ccc(Cl)cc2)C1 (stereo unspecified)	0.5%
CCOC(=O)C1CCN(C(=O)CN2c3ccc(CC)cc3-c3ccccc3S2(=O)=O)CC1	2.8%
CC(C)CN(CCCNC(=O)CN1N=C(c2ccccc2)CCC1=O)CC(C)C	0.5%
Cc1ccccc1-c1cc2nccc(-c3cc(Cl)ccc3O)n2n1	1.2%
CNS(=O)(=O)c1cn(CC(=O)Nc2ccc(C)cc2C)cc1S(=O)(=O)NC	1.1%
CCOC(=O)c1c(-c2ccccc2)csc1NC(=O)c1cc(-c2ccc(F)cc2)on1	-0.3%
CC(NS(=O)(=O)c1ccc2c(c1)CCN2C(=O)CCCC(=O)O)c1ccccc1 (stereo unspecified)	3.2%
COc1cc(OC)c(OC)cc1/C=C/c1nc2ccccc2c(=O)n1-c1ccc(Br)c(C)c1	2.8%
COc1ccc(-n2cc(C(=O)NCCc3cc(OC)ccc3OC)c3ccccc3c2=O)cc1	-0.1%
CCOC(=O)c1c(S(=O)(=O)N2CCCC(C(=O)Nc3ccc(C)cc3C)C2)c(C)n(CC)c1C (stereo unspecified)	0.7%
COCCNC(=O)c1cccc(-n2c(C)nc3cccnc32)c1	-0.7%
CC(C)CCNC(=O)Nc1ccc2c(c1)N(Cc1ccccc1)C(=O)c1ccccc1S2	1.1%
O=C(Cn1cc(S(=O)(=O)Cc2cccc(Cl)c2)c2ccccc21)NCCc1ccccc1	-0.5%
COc1ccc(Oc2nc3c(C)cccn3c(=O)c2/C=C(\C#N)c2nc3ccccc3[nH]2)cc1	?
COc1ccc(NC(=O)c2csnn2)cc1Cl	-0.4%
COc1ccc(NC(=O)c2oc3ccccc3c2NC(=O)C23CC4CC(CC(C4)C2)C3)c(OC)c1	1.8%
CCOc1ccc(NC(=O)c2sc3nc4c(cc3c2N)CN(Cc2ccccc2)CC4)cc1	11%

These rows are one share of the data, so the mix of outcomes need not match the whole.
